Screening results deposited in PubChem by National Center for Advancing Translational Sciences (NCATS).
GLA inh pH 4.5: blocks human alpha-galactosidase A at pH 4.5; P06280; purified enzyme, 4-MU-alpha-Gal fluorescence, pH 4.5; activity change, negative = inhibition, % at 105 µM; 230,000 tested, under 10 active; AID 1467; inconclusive = small, poorly fitted or top-dose-only inhibition, or a rising curve; inactive = flat fitted curve, though single readings scatter; no compound was filed as active;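 further: 0% = full activity with enzyme and -100% = basal without enzyme; dose as in the result columns while the protocol names 77 µM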
Rango complex inh: Rango-importin beta binding inhibition; Q14974; Rango CFP/YFP FRET sensor + importin beta, 45 min; Potency, µM (series often up to 92.2 µM), inactives show at the highest dose inhibition of complex formation; hit rate 0.031% among 340,000; AID 540263; active = rising FRET ratio curve, often small or poorly fitted; inconclusive = mostly compound fluorescence or quenching in the first reads; inactive = flat curves in all reads;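 further: potency means the concentration at half of the fitted maximal effect; 0% = DMSO wells and 100% = buffer wells lacking importin beta; nearly all actives have a fitted effect of over 15% in size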
Target sequence (Q14974 whole entry, looked up): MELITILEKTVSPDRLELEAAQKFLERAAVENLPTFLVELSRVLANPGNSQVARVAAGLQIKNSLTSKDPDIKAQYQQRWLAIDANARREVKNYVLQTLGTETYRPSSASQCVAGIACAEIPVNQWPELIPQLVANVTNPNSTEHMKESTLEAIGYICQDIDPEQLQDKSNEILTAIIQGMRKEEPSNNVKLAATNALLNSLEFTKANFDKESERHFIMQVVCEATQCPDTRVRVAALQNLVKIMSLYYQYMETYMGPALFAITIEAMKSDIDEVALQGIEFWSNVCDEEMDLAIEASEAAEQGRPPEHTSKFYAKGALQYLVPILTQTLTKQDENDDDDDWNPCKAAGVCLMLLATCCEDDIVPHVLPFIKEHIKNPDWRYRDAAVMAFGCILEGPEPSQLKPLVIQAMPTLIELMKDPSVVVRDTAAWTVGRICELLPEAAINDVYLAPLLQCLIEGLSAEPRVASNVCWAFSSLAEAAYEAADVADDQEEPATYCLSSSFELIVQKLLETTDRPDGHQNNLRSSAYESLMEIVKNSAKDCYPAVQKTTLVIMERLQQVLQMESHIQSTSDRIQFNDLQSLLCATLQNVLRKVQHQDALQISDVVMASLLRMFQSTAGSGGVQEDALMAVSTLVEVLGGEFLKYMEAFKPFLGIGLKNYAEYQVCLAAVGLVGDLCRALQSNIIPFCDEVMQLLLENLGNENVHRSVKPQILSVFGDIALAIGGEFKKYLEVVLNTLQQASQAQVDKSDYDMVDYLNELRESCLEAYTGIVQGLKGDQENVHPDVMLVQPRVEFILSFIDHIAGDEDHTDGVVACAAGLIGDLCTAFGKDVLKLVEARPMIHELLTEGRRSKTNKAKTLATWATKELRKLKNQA
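FRET biosensor (snurportin 1 IBB flanked by EYFP and cerulean), 50 nM, with compound 5 min, then 0.125 microM importin beta in PBS, 1 mM DTT, 0.02% Tween-20, 0.1% BSA. CFP/YFP ratio read after 45 min at room temperature; pre-read flags interference.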
Rango dissoc inh: inhibition of RanGTP-driven Rango-importin beta dissociation. O95149+P62826. Potency, µM (titrated, usually from 46.1 µM), without a hit: top-dose activity change, negative = inhibition. hit rate 0.071% among 340,000. Biochemical FRET Rango-importin beta, RanGTP-induced dissociation. AID 540253; active means falling FRET ratio curve, often poorly fitted, with flat reads before Ran was added; inconclusive means other falling curves, or compound fluorescence or quenching; inactive means flat or rising ratio curve;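 further: potency means the concentration at half of the fitted maximal effect; % of control where 0% means no effect; nearly all actives have a fitted effect of over 45% in size; -100% = wells without RanGTP and RCC1; the record marks most hits as doubtful in a second field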
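Compounds preincubate 5 min with complex of recombinant Rango and importin beta in PBS with 1 mM DTT. Ran (0.6 uM) loaded with 2 mM GTP plus 0.2 uM RCC1 starts dissociation; FRET is recorded 45 min later.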
miR-21 reporter: miR-21 reporter, rising signal; HeLa miR-21 FLuc reporter, luciferase, 48 h; Potency, µM (series often up to 38.3 µM), for inactives: at the highest dose reporter change, positive = more light; 340,000 tested, under 10 active; active = well fitted rising curve with a large enough effect; inconclusive = small, poorly fitted or top-dose-only effect; inactive = no such curve, though single readings can be large or run the other way;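 further: % of control where 0% means no effect; miR-21 action dims this reporter so a rising signal means less miR-21 action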
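HeLa cells stably expressing CMV-driven firefly luciferase with a downstream miR-21 binding sequence, endogenously expressing miR-21, were treated with titrations (up to about 40uM final) for 48 hours at 37 degree Celsius. Luciferase luminescence was read after lysis.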
Numbers without * were called inactive; ? = inconclusive; . = not tested or not shown; & = joins results of further samples; [ ] = dose if it differs, or a comment. The list is partial, so the mix of outcomes need not match the whole.

SMILES | GLA inh pH 4.5 | Rango complex inh | Rango dissoc inh | miR-21 reporter
CCC(C)C1=CC(=Nc2c(C)n(C)n(-c3ccccc3)c2=O)C=C(C(C)CC)C1=O (stereo not drawn) | -4 | -0.2% | -10% | 0%
c1ccc(-c2csc3ncnc(NCCCN4CCOCC4)c23)cc1 | 5 | -1.6% | 16% | 13%
Cc1ccnc(NS(=O)(=O)c2ccc(NC(=O)C3C4C=CC(C4)C3C(=O)O)cc2)n1 (stereo not drawn) | 3 | 2.6% | -21% | 1%
COc1ccc(C(C(=O)NCC2CCCO2)N(C(=O)CNC(=O)c2cccs2)c2ccc(C(C)=O)cc2)cc1OC (stereo not drawn) | 8 | 1.9% | -4% | -4%
Fc1cccc(-n2ncc(-c3nnnn3-c3ccccc3)c2C(F)(F)F)c1 | -2 | 4.2% | 15% | -3%
CC(/C=C/c1ccccc1)=N\NC(=O)c1ccncc1 | 9 | 2.3% | -10% | -6%
CCCCN(C)S(=O)(=O)c1cc(Br)cc2c1N(C(=O)C1CC1)CC2 | -23 | 0.3% | -8% | 22%
CCOc1ccc(NC(=O)c2ccc(NC(=O)c3ccccc3Br)cc2)cc1 | . | -3.9% | 20% | .
Cc1cc(C)cc(Oc2ccc(-c3nnc(-c4ccccc4)o3)cc2[N+](=O)[O-])c1 | 5 | 0.2% | 14% | -10%
Cc1cc(C)nc(SCC(=O)N/N=C\c2sccc2C)n1 | -20 | 3.2% | 7% | -23%
O=C(CN1CCN(S(=O)(=O)N2CCOCC2)CC1)Nc1cc(Cl)ccc1Cl | . | 0.6% | -3% | 8%
Cc1cc(N2CCN(C)CC2)ccc1NC(=O)c1ccc(-c2ccc(Cl)cc2)o1 | . | 3.5% | -4% | .
COc1cccc(C(=O)Nc2ccc3[nH]ncc3c2)c1 | . | 0.9% | ? | 0%
NC(=S)Nc1cccc2cn[nH]c12 | -13 | -3.2% | -2% | 8%
COCCCN1CN(S(=O)(=O)c2ccc(C)cc2C)c2nc3ccccc3nc21 | . | 0.8% | 11% | 1%
CN(C)CCSc1nc(-c2ccccc2)nc2c1COC(C)(C)C2 | 4 | -4.4% | 3% | -2%
O=C1CNC(=O)N1CC(=O)N1CCCc2ccccc21 | 1 | 0.3% | 1% | 1%
CC(=O)c1cccc(CN2CCN(CCc3ccccc3)C(CCO)C2)c1 (stereo not drawn) | 2 | -1.4% | -1% | 4%
COCCCNC(=S)NC1CCCCC1 | -1 | -1.4% | 0% | -7%
O=C(CNC(=O)c1ccc(S(=O)(=O)N2CCCC2)cc1)N/N=C/c1ccc(Cl)cc1Cl | -8 | 0.6% | 4% | 23%
CCCCc1cn(C[C@H]2CC[C@@H]([C@@H]3CC[C@H](Cn4cc(CCCC)nn4)O3)O2)nn1 | . | -5.3% | 2% | 2%
Cn1c(SCC(=O)N2CCN(c3ccccc3)CC2)nnc1-c1ccncc1 | -7 | -3.1% | 51% | -8%
CCCC(NC(=O)CCc1c(C)c2cc3c4c(oc3c(C)c2oc1=O)CCCC4)C(=O)O (stereo not drawn) | . | 3.2% | 6% | 12%
COc1ccc(NC(=O)CCN2CCN(c3ccc(F)cc3)CC2)cc1 | . | 2.0% | 13% | 0%
Cc1cccc(CNC(=O)c2ccccc2N)c1 | -4 | -0.9% | 6% | -22%

Other compounds
SMILES | GLA inh pH 4.5 | Rango complex inh | Rango dissoc inh | miR-21 reporter
CCN(CC)c1ccc(S(=O)(=O)N2CCCCC2)cc1NC(=O)C1CCC1 | . | -0.1% | 2% | .
CC(C)NC(=O)C12CC3CC(C1)CC(n1cnc(Cl)n1)(C3)C2 | 8 | 3.1% | 2% | 0%
O=C1CC(c2ccc(F)cc2)Sc2nc(-c3ccccc3)c(-c3ccccc3)n21 (stereo not drawn) | 5 | 0.3% | -9% | -3%
CCN(CC(=O)Nc1ccc(OC)cc1)C(=O)CCc1nc2ccccc2c(=O)[nH]1 | . | ? | -1% | .
Cc1cccc(C)c1NC(=O)c1c(-c2ccccc2)noc1C | 1 | -1.7% | 4% | -13%
Cc1ccc(SCC(=O)OCC(=O)NC2CCCCCC2)cc1 | . | -3.9% | -11% | -9%
CC1CCCN(C2(O)C(=O)Nc3ccc(Br)cc32)C1 (stereo not drawn) | . | 2.4% | 5% | -6%
Cc1ccccc1-c1nc2sc3c(c2c(=O)o1)CCC3 | 0 | 0.0% | -2% | 2%
COc1ccccc1N1CCN(S(=O)(=O)c2c(C)sc3ncn(CC(=O)NCCN(C)C)c(=O)c23)CC1 | . | 1.5% | 2% | 7%&3%
CC(=O)Nc1ccc(Nc2nc3ccccc3nc2NS(=O)(=O)c2ccc(Cl)c([N+](=O)[O-])c2)cc1 | . | -0.2% | 6% | .
Cc1ccc(-c2nc(CCN3C(=O)c4ccccc4C3=O)cs2)cc1 | -17 | -1.9% | -9% | -3%
CCN(CC(=O)Nc1ccc(NC(C)=O)cc1)C(=O)/C=C/c1ccc(C)o1 | . | -0.4% | 9% | .
CN(C)CCNc1oc(-c2ccccc2Cl)nc1S(=O)(=O)c1ccccc1 | . | -1.7% | 2% | .
CC(=O)Nc1ccc(S(=O)(=O)N2CCC(C(=O)c3ccc(Cl)cc3)CC2)cc1 | . | 1.1% | 2% | 27%
CCOc1ccc(NC(=O)Cn2nc(-c3ccccc3Cl)n(CC)c2=S)cc1 | -9 | -1.8% | -18% | 17%
CCSC(=O)NC1CCCCC1 | -5 | -3.2% | 11% | 0%
O=C(COC(=O)Cc1cccc(C(F)(F)F)c1)NCC1CCCO1 (stereo not drawn) | -6 | 10% | -12% | -2%
COC(=O)[C@]1(CC(C)C)N[C@H](c2ccc(-c3ccc(F)cc3)cc2)[C@@H]2C(=O)N(C)C(=O)[C@@H]21 | . | -3.5% | -2% | .
Clc1ccc2nc(N3CCCCC3)[nH]c2c1 | -1 | -2.4% | 2% | -44%
COC(=O)C1CCN(CC(=O)Nc2ccc(C(=O)Nc3ccccc3OC)cc2)CC1 | . | 2.7% | 10% | .
C[C@H](NC(=O)c1nc[nH]c1C(=O)N1CCN(C(=O)OC(C)(C)C)CC1)C(=O)OC(C)(C)C | . | -1.8% | -1% | .
COc1ccc(CCN(C)C(=O)C2CCCN(Cc3ccc(OC)c(OC)c3)C2)cc1OC (stereo not drawn) | -4&-4 | -5.1% | -1% | 0%&-3%
O=C(CSc1n[nH]c(=O)n1C1CC1)Nc1ccc(F)c([N+](=O)[O-])c1 | . | 2.2% | -2% | .
O=C(Nc1cccc(C(=O)N2CCOCC2)c1)c1cncc(Br)c1 | 7 | -2.7% | 2% | -1%
Cc1cccc(OCC(=O)Nc2nccs2)c1C | . | -0.4% | 8% | -24%

(more compounds)
SMILES | GLA inh pH 4.5 | Rango complex inh | Rango dissoc inh | miR-21 reporter
CC(C)(C)c1ccc(-c2n[nH]c(=S)n2CC2CCCO2)cc1 (stereo not drawn) | 1 | -4.0% | -2% | -12%
CCOCCOC(NC(=O)c1ccccc1)(C(F)(F)F)C(F)(F)F | -10 | -1.1% | -14% | -3%
Cc1nc(C(N)=O)nc2ccccc12 | -5 | 0.1% | 17% | -8%
O=C(OCc1ccco1)c1ccc(S(=O)(=O)N2CCCCC2)cc1 | -9 | 4.1% | -8% | 3%
O=C(OC(C(=O)NCc1ccc2c(c1)OCO2)c1ccc(Cl)cc1)c1ccco1 (stereo not drawn) | 1 | -0.2% | 2% | -4%
O=S(=O)(c1ccc(OCC(O)CN2CCCC2)cc1)N1CCOCC1 (stereo not drawn) | 8 | -6.7% | -3% | -2%
CCN=C1SC(CC(N)=O)C(=O)N1CC (stereo not drawn) | -2 | -0.4% | 1% | 19%
O=S(=O)(c1ccccc1)N1CCN(C2CCN(Cc3ccccc3)CC2)CC1 | 1 | -0.1% | -9% | -3%
CC1(C)Cc2c(c(N3CCCCC3)[nH]c(=S)c2C#N)CS1 | -4 | -6.5% | -16% | -4%
CCN(C(=O)COC(=O)C1CC1)c1c(N)n(Cc2ccccc2)c(=O)[nH]c1=O | . | 1.6% | -2% | .
CNC(=O)NC(=O)C(OC(=O)CCNS(=O)(=O)c1ccccc1)c1ccccc1 (stereo not drawn) | . | 2.5% | -2% | 0%
O=C(CCC(=O)OCc1cccc(C(=O)Oc2ccccc2)c1)Nc1cccc2ccccc12 | 2 | 11% | -6% | -21%
CN(C)c1ccc(N=Nc2ccccc2C(=O)OCC(=O)NC2CCCC2)cc1 | -12 | 2.8% | -4% | -30%
Cc1c(C(=O)N2CCCCC2)c(S(=O)(=O)NCc2ccc(N(C)C)cc2)c(C)n1C | . | 1.1% | -9% | -1%&0%
C=CCOc1ccccc1CNn1nnnc1N | 1 | -3.6% | 3% | -3%
Cc1ccc(C)n1-n1c(C)nc2sc(-c3ccccc3)cc2c1=O | -16 | -0.3% | -3% | -14%
CN(C)c1ccc(-c2n[nH]c(=S)n2-c2ccccc2)cc1 | 1 | -1.0% | 8% | -8%
COc1ccc(CC(NC(C)=O)C(=O)NC2CCN(C(=O)Nc3ccccc3C)CC2)cc1OC (stereo not drawn) | . | -3.3% | 15% | 1%
CCOC(=O)c1sc(NC(=O)c2ccc(C)s2)cc1C | 1 | 3.2% | -8% | -46%
COc1cccc(C(=O)OC(C)C(=O)NCC2CCCCC2)c1 (stereo not drawn) | . | 0.1% | -8% | .
CCCCCN(C(=O)NC(=O)Nc1ccccc1C)S(=O)(=O)c1ccccc1 | 3 | -1.8% | -3% | -6%
Cc1ccc(OCCn2c(=O)oc3ccc(C)cc32)cc1 | -10 | -0.5% | 4% | -36%
O=C(CC1C(=O)NC2CCCCC2N1C(=O)c1ccc(F)cc1)Nc1ccccc1 (stereo not drawn) | 3 | -2.1% | -2% | 2%
NC(=O)CSc1n[nH]c(-c2ccco2)n1 | 9 | -1.5% | -18% | 8%
Cc1sc2nc(CN(CCc3ccccc3)C(=O)c3ccco3)[nH]c(=O)c2c1C | -3 | -3.2% | -7% | 2%

More results:
SMILES | GLA inh pH 4.5 | Rango complex inh | Rango dissoc inh | miR-21 reporter
Nc1nc(NCCCN2CCOCC2)nc(Nc2ccc(F)cc2)c1[N+](=O)[O-] | -12 | 1.8% | 16% | -6%
O=C(CCNC(=O)c1ccc(Br)cc1)Nc1ccc(S(=O)(=O)N2CCOCC2)cc1 | . | 6.0% | 7% | .
O=[N+]([O-])c1ccc(S(=O)(=O)NCC2CCCO2)cc1 (stereo not drawn) | -7 | -0.5% | -1% | -3%
O=C(CNS(=O)(=O)c1ccccc1F)OCC(=O)c1c[nH]c2ccccc12 | . | -4.7% | -10% | .
COc1ccc(C(=O)[C@H]2[C@H]3C(=O)N(c4ccc(OC(C)=O)cc4)C(=O)[C@H]3C3C=CC=NN32)cc1 (stereo partly drawn) | -5 | -2.1% | -8% | -6%
CC/C(C)=N/Nc1nc2c(c(=O)[nH]c(=O)n2C)n1Cc1ccccc1 | . | 0.7% | 7% | 14%
C/C(Cl)=C/Cc1c(C)[nH]c2ccc(C)cc2c1=O | -2 | -2.0% | -14% | -41%
Cc1cc(S(=O)(=O)NCc2ccccc2)ccc1OCC(=O)NCc1cccnc1 | . | 0.8% | 14% | -2%
CCOC(=O)c1cc(CC)sc1NC(=O)c1cc([N+](=O)[O-])ccc1N1CCOCC1 | -3 | -0.3% | -16% | -5%
Oc1c(N=NC(=S)Nc2ccccc2F)c2ccccc2n1Cc1ccccc1Cl | -5[21.1 µM] | 1.6% | 4% | -1%
O=C(O)c1cccc(NC(=S)N/N=C/c2ccccc2OCc2cccc(Br)c2)c1 | 4 | 0.8% | 0% | -23%
COc1ccc(CCN(Cc2cc3cccc(C)c3[nH]c2=O)C(=O)NC2CCCCC2)cc1OC | -1 | 2.2% | -13% | 9%

An excerpt from above in order of SMILES length, falling:
SMILES | GLA inh pH 4.5 | Rango complex inh | Rango dissoc inh | miR-21 reporter
COc1ccc(C(=O)[C@H]2[C@H]3C(=O)N(c4ccc(OC(C)=O)cc4)C(=O)[C@H]3C3C=CC=NN32)cc1 (stereo partly drawn) | -5 | -2.1% | -8% | -6%
O=[N+]([O-])c1ccc(S(=O)(=O)NCC2CCCO2)cc1 (stereo not drawn) | -7 | -0.5% | -1% | -3%
C/C(Cl)=C/Cc1c(C)[nH]c2ccc(C)cc2c1=O | -2 | -2.0% | -14% | -41%
